# Screening results deposited in PubChem by The Scripps Research Institute Molecular Screening Center.
# TPT1 inhibitor: blocks Candida albicans tRNA 2'-phosphotransferase. recombinant caTPT1, FP RNA substrate dephosphorylation. 300,000 compounds, 0.81% hits. inhibition, % at 5 µM;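 active means inhibition above the mean of all tested compounds plus 3 SD, set per screening campaign, cut at about 24% in these data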;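 further: plate controls were DMSO alone for no effect and ferristatin control at 100 nM for full effect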
# Fh CTSL1 inh: blocks F. hepatica cathepsin L1 in PFM18AAP counter-screen; recombinant F. hepatica cathepsin L1, Z-Leu-Arg-MCA fluorescence; inhibition, % at 5.96 µM; 300,000 compounds, 0.49% hits;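 active means inhibition above the mean of all tested compounds plus 3 SD, set per screening campaign, cut at about 17% in these data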;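 further: 0% = plate median of test compound wells and 100% = 1 µM Z-Phe-Ala-diazomethylketone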
# core dimer inh: blocks dimerization of HCV core protein; TR-FRET GST/Flag-core106 dimerization, 1536-well; inhibition, % at 5 µM; 300,000 compounds, 0.33% hits; AID 1899;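 active means inhibition above the mean of all tested compounds plus 3 SD, set per screening campaign, cut at about 45% in these data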
#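 Assay system: Tagged HCV core106 pair (GST and Flag) | Buffer or medium: KF-containing HEPES buffer, pH 7.45, DTT, CHAPS, BSA | Also added: Eu donor and XL665 acceptor anti-tag antibodies | Dosing: One concentration, 5 µM, in 0.5% DMSO | Timing: 4 h at 22.5 °C | Technique: TR-FRET 671 and 617 nm emission | Repeats: Singlicate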
# PP1 inh: PP1-alpha (human) inhibition in PP5 counter-screen; P62136; purified PP1alpha, OMFP fluorescence; inhibition, % at 6.7 µM; 320,000 compounds, 0.9% hits; AID 2235;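 active means inhibition above the mean inhibition of all tested compounds plus 3 SD, computed separately for each screening campaign, cut at about 15% in these data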
# Target sequence (P62136 whole entry, looked up): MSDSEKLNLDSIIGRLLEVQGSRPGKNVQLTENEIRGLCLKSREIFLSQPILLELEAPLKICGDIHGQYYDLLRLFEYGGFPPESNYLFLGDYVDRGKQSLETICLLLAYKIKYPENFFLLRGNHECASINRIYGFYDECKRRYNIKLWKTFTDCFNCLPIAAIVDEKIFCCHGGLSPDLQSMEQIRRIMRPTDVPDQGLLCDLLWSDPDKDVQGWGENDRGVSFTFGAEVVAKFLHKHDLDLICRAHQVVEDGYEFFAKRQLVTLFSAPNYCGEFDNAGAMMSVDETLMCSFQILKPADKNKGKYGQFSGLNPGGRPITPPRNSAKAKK
# PP5 inh: PP5 (human) phosphatase inhibition; P53041; purified PP5c, OMFP substrate fluorescence; inhibition, % at 6.7 µM; 320,000 compounds, 0.18% hits; AID 1987;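 active means inhibition above the campaign's mean inhibition across all tested compounds plus 3 SD, cut at about 9.5% in these data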;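 further: 0% = DMSO only and 100% = 100 µM cantharidin control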
# Starred values were filed as active, the others as inactive; · = no result given; & = joins results of further samples. These rows are one share of the data. The share of hits here may be higher or lower than overall.
# Sequence of screens – TPT1 inhibitor	Fh CTSL1 inh	core dimer inh	PP1 inh	PP5 inh
(1) CCOC(=O)c1cncn1[C@H](C)c1ccccc1
→ -4	0	1	-1	-1.6
(2) C=CCOC(=O)c1ccccc1N
→ ·	·	·	-3	-0.3
(3) C=CCN1CC[C@]23c4c5ccc(O)c4OC2C(=O)CC[C@@]3(O)C1C5 (stereo partly drawn)
→ -3	-3	2	-5	-0.4
(4) C[C@]12CC[C@H](O)C[C@@H]1CC[C@@H]1[C@@H]2CC[C@]2(C)C(=O)CC[C@@H]12
→ -5	2	-9	3	-5.2
(5) C=CCN1CC[C@]23c4c5ccc(O)c4O[C@H]2C(=O)CC[C@@]3(O)[C@H]1C5
→ 1&1	-5&-4	-2&10	-1&-3	-1.4&1.8
(6) C[C@H]1C[C@@H](C)C(=O)[C@@H]([C@H](O)CC2CC(=O)NC(=O)C2)C1
→ -4	-2	-2	2	4.1
(7) COc1ccc2c(c1)[nH]c1c(C)nccc12
→ 0	-5	2	-1	2.3
(8) C[C@]12CCC3[C@@H](CC[C@H]4C[C@@H](O)CC[C@]34C)C1CCC2=O (stereo partly drawn)
→ -3	-1	-10	-3	0.1
(9) C[C@]12CC[C@@H](O)C[C@@H]1CC[C@@H]1[C@@H]2CC[C@]2(C)C(=O)CC[C@@H]12
→ 2	-2	1	-3	-0.6
(10) O=[N+]([O-])c1ccccc1Cl
→ ·	·	·	-2	3.9

# Three compounds picked at random from the list so far, as already listed:
# Sequence of screens – TPT1 inhibitor	Fh CTSL1 inh	core dimer inh	PP1 inh	PP5 inh
(2) C=CCOC(=O)c1ccccc1N
→ ·	·	·	-3	-0.3
(8) C[C@]12CCC3[C@@H](CC[C@H]4C[C@@H](O)CC[C@]34C)C1CCC2=O (stereo partly drawn)
→ -3	-1	-10	-3	0.1
(7) COc1ccc2c(c1)[nH]c1c(C)nccc12
→ 0	-5	2	-1	2.3

# A draw from above in order of SMILES length, ascending.
# Sequence of screens – TPT1 inhibitor	Fh CTSL1 inh	core dimer inh	PP1 inh	PP5 inh
(10) O=[N+]([O-])c1ccccc1Cl
→ ·	·	·	-2	3.9
(3) C=CCN1CC[C@]23c4c5ccc(O)c4OC2C(=O)CC[C@@]3(O)C1C5 (stereo partly drawn)
→ -3	-3	2	-5	-0.4
(6) C[C@H]1C[C@@H](C)C(=O)[C@@H]([C@H](O)CC2CC(=O)NC(=O)C2)C1
→ -4	-2	-2	2	4.1
(4) C[C@]12CC[C@H](O)C[C@@H]1CC[C@@H]1[C@@H]2CC[C@]2(C)C(=O)CC[C@@H]12
→ -5	2	-9	3	-5.2
